VDR inh = inhibitors of human vitamin D receptor; P11473; VDR-SRC2-3 peptide fluorescence polarization, 2 h; Potency, µM, without a hit: max response, negative = inhibition, most hits filed as inhibitors; actives 0.93% (n = 400,000); AID 504847; active = well fitted inhibition curve with a large enough effect; inconclusive = small, poorly fitted or top-dose-only effect, or another doubt; inactive = no such curve, though single readings can be large or run the other way; also: series mostly up to about 120 µM
Target sequence (P11473 whole entry, looked up): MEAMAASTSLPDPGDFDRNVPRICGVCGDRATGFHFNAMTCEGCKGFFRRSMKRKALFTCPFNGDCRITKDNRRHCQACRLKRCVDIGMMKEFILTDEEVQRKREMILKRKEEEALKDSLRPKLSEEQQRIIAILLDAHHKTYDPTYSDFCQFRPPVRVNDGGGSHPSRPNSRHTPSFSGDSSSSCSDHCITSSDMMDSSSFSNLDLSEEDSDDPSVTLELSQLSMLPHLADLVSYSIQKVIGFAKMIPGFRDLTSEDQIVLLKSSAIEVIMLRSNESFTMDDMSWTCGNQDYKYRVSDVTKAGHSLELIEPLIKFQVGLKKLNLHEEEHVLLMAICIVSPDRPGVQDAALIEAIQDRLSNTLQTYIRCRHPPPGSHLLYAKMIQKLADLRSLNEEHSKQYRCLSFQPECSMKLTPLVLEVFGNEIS
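Reagent solutions, kept cold and dark, are dispensed first; compounds are then pinned in at 23 nl, plates briefly spun, and incubated 2 h at ambient temperature. Inhibition of VDR–SRC2-3 peptide binding is read by fluorescence polarization.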
Starred values were filed as active, the others as inactive; ? = inconclusive; & = joins results of further samples; [ ] = another dose, or the depositor's remark. % is scaled to controls: 0 for no effect and ±100 for the full control effect; potency is read from the fitted curve at half-maximal effect. A portion of the library; rates above refer to the full screens.

no.	VDR inh	Molecule
1	-24%	CC1(C2CC2)NC(=O)N(CC(=O)N2CCN(S(=O)(=O)c3ccc(F)c(F)c3)CC2)C1=O (centres undefined)
2	4%	COc1ccccc1N1CCN(CC(=O)c2c(C)[nH]c3cc(C)ccc23)CC1
3	-5%	CC(=O)c1ccc2c(c1)C1C=CCC1C(c1cc3c(cc1Br)OCO3)N2 (centres undefined)
4	-1%	CC(C)CCSc1nnc(N)s1
5	-10%	CNc1ccc(N=Nc2cccc3ncccc23)cc1
6	6%	CC(C)Cc1cc(C(=O)NCCCN2CCOCC2)no1
7	?	CC1CCc2c(sc3nnn(Cc4ccccc4)c(=O)c23)C1 (centres undefined)
8	-3%	O/N=C/Cc1[nH]c2ccccc2c1-c1ccccc1
9	-6%	COc1ccc(Cn2c(SCc3ccc(C(=O)NCc4ccc(C)cc4)cc3)nc3cccnc32)cc1
10	3%	Cc1ccc(C2(C)NC(=O)N(CC(=O)NNC(=O)c3ccoc3C)C2=O)cc1 (centres undefined)

The final 3 entries of the part above come first, to join the parts.
no.	VDR inh	Molecule
8	-3%	O/N=C/Cc1[nH]c2ccccc2c1-c1ccccc1
9	-6%	COc1ccc(Cn2c(SCc3ccc(C(=O)NCc4ccc(C)cc4)cc3)nc3cccnc32)cc1
10	3%	Cc1ccc(C2(C)NC(=O)N(CC(=O)NNC(=O)c3ccoc3C)C2=O)cc1 (centres undefined)
11	-4%	Cc1[nH]n(-c2ccccc2)c(=O)c1C(=O)c1cccc(F)c1
12	6%	COc1cccc(-c2cc(C(=O)NCC3CCCO3)c3cc(Br)cc(C)c3n2)c1 (centres undefined)
13	11%	O=c1c2c([nH]c3ccc(Br)cc13)CCCC2
14	2%	COc1ccccc1CNC(=O)CSc1n[nH]c(N)n1
15	3%	COCCn1c(CNC(=O)c2cc(OC)c(OC)c(OC)c2)nc2cccnc21
16	-8%	S=C(Nc1ccc(Cl)cc1)Nc1ccc2cn[nH]c2c1
17	15%	Cc1ccc(CNC(=O)CN2C(C)CCCC2C)cc1 (centres undefined)
18	-14%	COCCN(C(=S)Nc1cccc(C)c1)C(C)c1cccnc1 (centres undefined)
19	13%	COc1cc(C(=O)NCc2nnc(SCC(=O)NC3CCCCC3)o2)cc(OC)c1OC
20	11%	CCN(c1ccccc1)S(=O)(=O)c1ccc(Cl)c(NC(=O)COC(=O)c2ccc(Cl)c(N)c2)c1
21	4%	OC(COC(c1ccc(Cl)cc1)c1ccc(Cl)cc1)CN1CCc2ccccc2C1 (centres undefined)
22	12%	CCCCNC(=O)Nc1nnc(-c2ccc(OCC)cc2)o1
23	-9%	CCN(CC)S(=O)(=O)c1cccc(C(=O)NNC(=O)C2=NN(c3ccccc3)C(=O)CC2)c1
24	-3%	CC(=O)COc1ccc2c(-c3ccccc3)cc(=O)oc2c1C
25	-16%	O=C(NNC(=O)c1cc(F)c(F)cc1Cl)c1ccc(NS(=O)(=O)c2cccs2)cc1
26	-20%	OCCCN1CCN(CCCOc2ccccc2-c2ccccc2)CC1
27	5%	O=C(Cc1ccccn1)Nc1ccccc1
28	7%	COCCCNC(=O)Cn1c(=O)n(-c2cccc(C)c2)c(=O)c2c1c1cc(C)ccc1n2C
29	153%[activator]	CCN(CC)C(=O)c1ccc(S(=O)(=O)Cc2ccc(C)cc2)c([N+](=O)[O-])c1
30	-3%	O=C(CN1C(=O)c2cccc3cccc1c23)NCc1ccc2c(c1)OCO2
31	9%	COc1ccc(CNC(=O)c2cc3c(=O)n(Cc4cccs4)ccc3nc2C)cc1
32	7%	Cc1cc(C)n(-c2cc(N3CCN(C(=O)c4cccc(F)c4)CC3)ccc2[N+](=O)[O-])n1
33	-4%	Cc1n[nH]c(C)c1S(=O)(=O)N(CC(=O)NCc1ccccc1Cl)c1ccc(C(C)C)cc1
34	-12%	CN(/N=C/c1cc(Br)cc(Br)c1O)c1ccccc1
35	-9%	CC(=O)N(CCCN1CCOCC1)Cc1ccncc1
36	7%	COc1ccc(OCC(=O)NNC(=O)C2CCC2)cc1
37	-5%	CN(CCC1CCCCO1)Cc1cn(C)nc1-c1ccc2c(c1)OCCO2 (centres undefined)
38	-12%	CN(C)c1ccc(NC(=O)c2cc3c(=O)n4ccccc4nc3n2C)cc1
39	-9%	Cc1ccc(NC(=S)N(CCN2CCCCC2)Cc2ccco2)cc1
40	19%	COc1ccccc1NC1=Nc2cccc3cccc1c23

Reformatted with each value named: part of the list above.
(33) Cc1n[nH]c(C)c1S(=O)(=O)N(CC(=O)NCc1ccccc1Cl)c1ccc(C(C)C)cc1
- VDR inh: -4%

(34) CN(/N=C/c1cc(Br)cc(Br)c1O)c1ccccc1
- VDR inh: -12%

(35) CC(=O)N(CCCN1CCOCC1)Cc1ccncc1
- VDR inh: -9%

(36) COc1ccc(OCC(=O)NNC(=O)C2CCC2)cc1
- VDR inh: 7%

Sorted by molecular weight (highest first): some entries from above
no.	VDR inh	Molecule
33	-4%	Cc1n[nH]c(C)c1S(=O)(=O)N(CC(=O)NCc1ccccc1Cl)c1ccc(C(C)C)cc1
36	7%	COc1ccc(OCC(=O)NNC(=O)C2CCC2)cc1
35	-9%	CC(=O)N(CCCN1CCOCC1)Cc1ccncc1

Next part:
no.	VDR inh	Molecule
41	31%[activator]	C/C(=N\NC(=O)CSc1nc(C)cc(C)n1)c1ccc([N+](=O)[O-])cc1
42	-17%	O=C(Cc1ccsc1)N1CCc2c([nH]c3ccccc23)C1c1ccccn1 (centres undefined)
43	5%	c1ccc(C2=Nn3c(nnc3-c3cccnc3)SC2)cc1
44	-1%	CCOCc1nnc(NC(=O)c2ccc3c(c2)OCO3)s1
45	-13%	O=C(Nc1c2c(nn1-c1ccc(F)cc1)CS(=O)C2)c1ccc2c(c1)OCO2 (centres undefined)
46	0%	Cc1cc2c(cc1S(=O)(=O)C(C)CC(=O)NC1CCC(C)CC1)OCC(=O)N2 (centres undefined)
47	2%	COc1ccc(OC)c(N=C(C)C2=C(O)COC2=O)c1
48	7%	CC1(C)C(=O)Nc2ccccc2N1C(=O)COC(=O)/C=C/c1ccc(OC(F)F)cc1
49	6%	CCc1cccc2c(C(=O)COC(=O)/C=C/c3ccc(O)c(OC)c3)c[nH]c12
50	40µM*	COc1ccc(N2C(S)=C(C#N)C(=O)NC2c2ccc(OC)c(OC)c2)cc1 (centres undefined)
51	-21%	COc1cc(S(=O)(=O)Nc2ccc3nc(C)sc3c2)ccc1NC(C)=O
52	18%	COc1ccc(C(=O)OCC(=O)NC(=O)NC2CCCC2)cc1OC
53	13%	COC(=O)c1[nH]c2cccc(Cl)c2c1NC(=O)CN1CCN(CCO)CC1
54	2%	COc1ccc(C2SCCN2S(=O)(=O)c2ccc(NC(C)=O)cc2)cc1 (centres undefined)
55	11%	CN(C)C(CNC(=O)CN1C(=O)NC2(CCc3ccccc32)C1=O)c1ccco1 (centres undefined)
56	-1%	Cc1cccc(-c2oc3ccc(-c4ccc5c(c4)OCO5)cc3c2-c2ccc(OC3CCCCO3)cc2)c1 (centres undefined)
57	-22%	O=C(c1ccc2c(c1)OCO2)N1CCOCC1
58	-10%	COc1ccc(C2C(C#N)=C(/N=C/N3CCOCC3)OC3=C2C(=O)CC(C)(C)C3)cc1OC (centres undefined)
59	10%	O=C(Nc1c(C(=O)O)oc2ccccc12)c1ccc(C(F)(F)F)cc1
60	-19%	CCCc1cc(=O)[nH]c(SCC(=O)Nc2c(C)cccc2C)n1
61	-9%	Nc1nc(-c2ccccc2)c(N=Nc2ccc(Cl)cc2)s1
62	7%	CCSc1nc2sc3c(c2c(=O)n1-c1ccc(C)cc1)CCCC3
63	2%	CCOc1ccc(Cn2c(CNS(=O)(=O)c3cccc(Cl)c3)nc3cccnc32)cc1
64	4%	O=C(N/N=C\c1cc(Br)cs1)C1COc2ccccc2O1 (centres undefined)
65	-6%	CCOc1ccccc1N1CC(C(=O)N(CC)CC(=O)Nc2ccc3c(c2)OCCO3)CC1=O (centres undefined)
66	?	COc1ccc(C(=O)NN)cc1COc1ccc(Br)cc1
67	10%	COc1ccccc1N1CCN(C(=O)c2cc(-c3ccc(F)cc3)[nH]c2C)CC1
68	-7%	O=C(Nc1ccccc1)c1nc[nH]c1C(=O)NCc1ccccc1
69	-8%	CN1CC(=O)N/C1=N/C(=O)Nc1cccc(Cl)c1
70	1%	O=C(NCc1cccs1)C1CCN(S(=O)(=O)c2ccccc2F)CC1
71	-2%	O=C(COC(=O)c1cccc([N+](=O)[O-])c1)NCc1cccs1
72	2%	Cc1ccc(NC(=O)c2ccc(-n3c(C)nnc3C)cc2)cc1F
73	8%	O=C(NCCc1ccc([N+](=O)[O-])cc1)c1ccccc1
74	-5%	O=C(c1ccccc1F)N(Cc1ccc(F)cc1)C1CCS(=O)(=O)C1 (centres undefined)
75	4%	CCCCN(CC)CCNC(=O)C1CCCN(c2ncnc3onc(C)c23)C1 (centres undefined)
76	7%	O=C(c1cc2c(=O)n3ccccc3nc2s1)N1CCN(c2cccc(Cl)c2)CC1
77	8%	O=C(NCc1ccc2c(c1)OCO2)C1CCC(CNc2c(N3CCCCC3)c(=O)c2=O)CC1 (centres undefined)
78	19%	COc1ccccc1NS(=O)(=O)c1ccc2ccccc2c1
79	-2%	Cc1ccc(C)c(NC(=S)NC(C)C(c2ccccc2)N2CCN(C)CC2)c1 (centres undefined)
80	8%	CCC(C(=O)OCC(=O)Nc1cc(Cl)ccc1Cl)c1ccccc1 (centres undefined)
81	1%	COc1ccccc1N1CCN(C(CNC(=O)C(=O)NCCc2ccccc2)c2cccnc2)CC1 (centres undefined)
82	-23%	CCOC(=O)C1CCN(C(=O)CN(c2ccc(OC)c(OC)c2)S(=O)(=O)c2ccccc2)CC1
83	-17%	Cc1ccc(CNCc2ccccc2Cl)s1
84	25µM*	CCCOc1ccccc1/C=C1/C(=O)ON=C1C
85	-12%	CCOC(=O)C1CCN(S(=O)(=O)c2ccc(OC)c(C(=O)N3CCCCC3)c2)CC1
86	-12%	O=C(CSc1nnnn1-c1ccccc1Cl)Nc1ccc2c(c1)OCCO2
87	-23%	Cc1cc(S(=O)(=O)NCC2CCCO2)c(C)cc1Br (centres undefined)
88	-9%	CC(C)CNC(=S)NC1CC2CCCC(C1)N2Cc1ccco1 (centres undefined)
89	19%	O=C(COc1ccc(S(=O)(=O)NC2CCCCC2)cc1)N1CCN(c2cccc(Cl)c2)CC1
90	-4%	CC(Oc1ccccc1)C(=O)Nc1c2c(nn1-c1ccccc1)CS(=O)C2 (centres undefined)

(more compounds)
no.	VDR inh	Molecule
91	-5%	Cc1cccc(N=C2Sc3nc4c(C)c(C)ccc4cc3CN2CCN2CCOCC2)c1
92	15%	Cc1ccc(-c2c(C)n3c4c(=O)n(C)c(=O)n(C)c4nc3n2-c2cccc(O)c2)cc1
93	6%	CC(=O)Nc1ccc(C(=O)n2nc(C)cc2C)cc1
94	1%	Cc1ccccc1/C=N/N=C1/NC(=O)CCS1
95	25%	CCOC(=O)C1CCN(C(=O)C(C)Sc2ccc(Cl)cc2)CC1 (centres undefined)
96	-19%	Cc1cc(=O)oc2c(C)c3occc3cc12
97	7%	O=C(O)c1ccc(CSc2nc3ccccc3[nH]2)cc1
98	-12%	Cc1c(NC(=O)CSCc2ccc(Cl)cc2Cl)cccc1C(=O)O
99	14%	CC(=O)c1ccc(N2C(=NC(=O)C3CCCCC3)SC3CS(=O)(=O)CC32)cc1 (centres undefined)
100	1%	O=C1C(C=NCc2cccnc2)=C(O)c2ccccc21
101	-20%&-19%	CCCCC/C=C\C/C=C\CCCCCCCCCC(=O)O
102	-3%	CCc1cccc(NC(=O)c2c(C)oc3nc(C)nc(N4CCCC4)c23)c1
103	25%	Cc1nc(-c2ccc(NC(=O)C3CCCCC3)cc2)cs1
104	-16%	CCC(C(=O)O)N1C(=O)c2ccccc2C1=O (centres undefined)
105	10%	O=C1[C@H](Cc2ccccc2)NCCCC[C@H](c2ccc(Cl)cc2)N1Cc1ccccc1
106	-17%	O=C(c1cccs1)N1CCN(S(=O)(=O)c2ccc(F)cc2)CC1
107	40µM*	CCOc1ccc(C(c2c(O)nc(SC)n(C)c2=O)c2c(O)nc(SC)n(C)c2=O)cc1
108	27%	CCC(C)C(NC(=O)c1ccccc1NC(=O)c1ccco1)C(=O)NNC(=O)c1ccncc1 (centres undefined)
109	-9%	COc1ccc(C(=O)c2cn(Cc3ccccc3)c3ccccc3c2=O)cc1OC
110	-25%	COc1ccc(CNC(=O)CCCn2nc(C)c([N+](=O)[O-])c2C)cc1
111	-6%	Cc1ccc(C(C(=O)Nc2ccc3c(c2)OCO3)N(C)C(=O)Cc2c[nH]c3ccccc23)cc1 (centres undefined)
112	16%	CN1C(=O)NC(c2ccc([N+](=O)[O-])cc2)C2=C1CC(C)(C)CC2=O (centres undefined)
113	4%	CCCc1cc(=O)[nH]c(SCc2nc3ccc([N+](=O)[O-])cc3[nH]2)n1
114	3%	C=CCN(c1ccccc1)S(=O)(=O)c1cccc(C(=O)NNC(=O)c2ccncc2)c1
115	-19%	CCc1ccc(CNC(=O)c2ccc3c(c2)N=C(C)c2cc(C)ccc2S3)cc1
116	11%	CCOC(=O)c1cnc(COc2ccc(OC)cc2)[nH]c1=O
117	15%	COc1cccc(CNC(=O)Cn2nc([N+](=O)[O-])c(Br)c2C)c1
118	1%	C=CCn1c(CNS(=O)(=O)c2ccc(Br)cc2)n[nH]c1=S
119	-13%	COc1ccc(-c2nn(-c3ccccc3)cc2C(=O)N2CCN(C(=O)c3ccco3)CC2)cc1
120	8%	CCN=C1SC(CC(=O)Nc2sc(C)c(C)c2C(=O)OC)C(=O)N1CC (centres undefined)
